Screening results as filed in PubChem.
FGF22 binding = binders of human FGF22 protein, primary screen, FGF22 synaptogenesis inhibitor project, biophysical, thermal shift, single point. Fibroblast growth factor 22 (Homo sapiens), Q9HCT0. recombinant FGF22 thermal shift, SYPRO orange fluorescence; percent of sucrose octasulfate shift, DMSO zero. calls only at 9.99 µM. actives 1.5% (n = 340,000);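 active means melting point raised past a set limit in the mean and every replicate; inconclusive means no clear call; three in four hits are not shown here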
Target sequence (Q9HCT0 whole entry, looked up): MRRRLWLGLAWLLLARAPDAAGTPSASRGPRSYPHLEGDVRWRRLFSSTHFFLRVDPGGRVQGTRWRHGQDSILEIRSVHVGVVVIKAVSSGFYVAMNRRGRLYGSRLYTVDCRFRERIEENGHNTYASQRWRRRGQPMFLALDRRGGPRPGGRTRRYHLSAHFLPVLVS
Vif A3G = inhibitors of Vif binding to APOBEC3G peptide, primary screen, biochemical, TR-FRET, GST-Vif 1-94, biotin-A3G peptide, dose response retest (AID 1117319); inhibition, %; hits with a dose series show IC50 in µM; actives 0.57% (n = 260,000); Virion infectivity factor (Human immunodeficiency virus type 1 group M subtype B (isolate …; TR-FRET GST-Vif / biotin-A3G peptide binding; higher % means a stronger effect; test concentration not given here; strong numbers were not always called active;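 active means above the screen mean plus three standard deviations and confirmed in dose response; inconclusive means results disagree or hit not tested in dose response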;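 further: Vif residues 1-94 fused to GST binding biotinylated APOBEC3G peptide 110-148; 0% = full assay without inhibitor and 100% = GST in place of GST-Vif; retest series ran down from 100 µM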
HNF4A DNA FP = change in binding of human HNF4A to DNA, primary screen, biochemical, fluorescence polarization, FITC-DNA | Hepatocyte nuclear factor 4-alpha (Homo sapiens), P41235 | actives 0.3% (n = 360,000) | activity change, % at 10 µM | 1 h | AID 1224865, 2016; in the data active means activity change above about 30%, passing the limit was not always enough;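 further: controls were the assay level and a saturating level of protein; the project sought stronger binding though the title names inhibitors; some compounds called inactive have numbers as strong as hits; positive values seem to mean higher polarization but the record does not say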
Target sequence (P41235 whole entry, looked up): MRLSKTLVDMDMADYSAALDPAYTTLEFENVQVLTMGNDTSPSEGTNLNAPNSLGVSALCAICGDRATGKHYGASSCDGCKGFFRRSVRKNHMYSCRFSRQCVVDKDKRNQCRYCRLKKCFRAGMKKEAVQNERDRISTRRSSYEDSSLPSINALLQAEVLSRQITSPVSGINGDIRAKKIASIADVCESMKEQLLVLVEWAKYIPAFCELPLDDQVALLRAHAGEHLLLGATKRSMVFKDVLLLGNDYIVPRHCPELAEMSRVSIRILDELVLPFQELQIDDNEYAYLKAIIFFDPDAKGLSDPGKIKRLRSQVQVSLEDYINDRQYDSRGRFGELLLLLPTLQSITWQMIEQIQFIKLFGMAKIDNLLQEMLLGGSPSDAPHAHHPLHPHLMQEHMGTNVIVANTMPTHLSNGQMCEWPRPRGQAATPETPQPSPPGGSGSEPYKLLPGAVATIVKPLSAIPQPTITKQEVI
rRNA inh HTS = reduced GFP signal of wild-type E. coli, primary screen, bacterial rRNA inhibitor project, GFP/RFP fluorescence, OD600, single point; E. coli WT GFP vs humanized-ribosome RFP mutants, 24 h; hits give low values; DMSO median 0, no signal -100; GFP signal change (wild-type ribosome), % (concentration not given with the values); actives 1.6% (n = 350,000); AID 720706, 2013;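 active means significant combined selectivity score with lowered wild-type GFP, culture density cut under 30%, mutant RFP and density less affected; inactive means any of these conditions unmet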; further: one replicate is shown; some compounds called inactive have numbers as strong as hits
MLL AF4-AF9 inh = inhibitors of AF4 peptide binding to AF9, primary screen, biochemical, AlphaScreen, biotin-AF4 peptide, FLAG-AF9, single point. Protein AF-9 (Homo sapiens), P42568. inhibition, % at 10 µM. actives 0.47% (n = 350,000). AID 651704, 2012;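 active means every replicate reaching a set inhibition limit, whatever the replicate mean, cut at about 25% in these data; inconclusive means mean inhibition reaches that limit but some replicates miss it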;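 further: 0% = plate neutral control median and 100% = total signal loss; the record names both 10 and 1 µM as test concentration; the first replicate is given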
Ecoli growth = E. coli growth inhibition, primary screen, OD600; Escherichia coli growth, 23 h; hits give low values; OD600 absorbance (test concentration not listed); actives 0.21% (n = 330,000); AID 1053175, 2014;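 active means OD600 absorbance below the run mean of sample wells minus 3.6 SD, in any replicate, cut at about 0.56 in these data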;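 further: stock transfer was 300 nL into about 60 µL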
ALR H2O2 inh = inhibitors of human ALR sulfhydryl oxidase, primary screen, biochemical, H2O2 detection, HRP-luminol luminescence, single point; inhibition, % (concentration not given with the values); AID 485317, 2010; purified ALR, DTT oxidation; actives 3.8% (n = 290,000);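 active means mean and each replicate at 75% or more; inconclusive means only one of the two met; inactive means neither met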;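 further: stock transfer was 7.5 nL into about 7.5 µL; 0% = neutral wells and 100% = wells with inactivated enzyme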
Target sequence (P55789 whole entry, looked up): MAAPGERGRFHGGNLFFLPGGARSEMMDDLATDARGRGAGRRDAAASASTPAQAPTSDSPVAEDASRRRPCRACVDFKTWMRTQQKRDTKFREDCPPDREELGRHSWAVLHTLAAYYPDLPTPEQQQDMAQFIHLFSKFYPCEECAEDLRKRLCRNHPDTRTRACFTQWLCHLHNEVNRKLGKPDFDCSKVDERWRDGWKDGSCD
rRNA inh HTS OD600 = second read-out of rRNA inh HTS, no call of its own (marks repeat the call); OD600 change, %; measured here: OD600 growth;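 optical density of the mix in the first replicate; 0 = DMSO median and -100 = no signal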
rRNA inh HTS RFP = further read-out of rRNA inh HTS, marked with its call; RFP signal change, %; measured here: RFP humanized mutant strains;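 first replicate; 0 = DMSO median and -100 = no signal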
* hit, by the source's call; i = inactive; ? = inconclusive; / = no result given; & = joins results of further samples.

SMILES	FGF22 binding	Vif A3G	HNF4A DNA FP	rRNA inh HTS	rRNA inh HTS OD600	rRNA inh HTS RFP	MLL AF4-AF9 inh	Ecoli growth	ALR H2O2 inh
CC(Sc1nc2cc(Cl)ccc2s1)C(=O)Nc1cccc(S(=O)(=O)N2CCOCC2)c1 (stereo not drawn)	/	2%	4.2	-9	-12	-4.6	2.0	0.69	-2
CCC(=O)N(CCc1ccccc1)Cc1cc2cccc(C)c2[nH]c1=O	i	-2%	0.7	2	2	-0.6	1.0	0.68	-5
COCCn1c(SCC(=O)Nc2ccccc2)nc2c(oc3ccccc32)c1=O	i	9%	-5.2	5	1	-0.1	-1.4	0.68	4
O=C(/C=C/c1ccccc1)NC(NC(=S)Nc1cccc(O)c1)C(Cl)(Cl)Cl (stereo not drawn)	/	/	0.5	/	/	/	/	0.65	1
COc1ccc(S(=O)(=O)Nc2ccc3c(c2)C(=O)N([C@H](C)CO)C[C@H](C)[C@@H](CN(C)C)OCCCC[C@@H](C)O3)cc1	i	/	/	3	6	0.1	-7.9	/	/
CCOC(=O)c1cc(C#N)c(SCC(=O)c2cc(C#N)c(SC)nc2C)nc1C	i	-321%	11	-3	-5	4.3	0.8	0.73	-3
COc1ccc(NC(=O)Nc2cccc3c2O[C@@H](CN(C)S(=O)(=O)c2ccccc2)[C@H](C)CN([C@H](C)CO)C3=O)cc1	i	/	/	-4	5	0.6	4.0	/	/
COCC#Cc1cnc2c(c1)C(=O)N([C@H](C)CO)C[C@H](C)[C@@H](CN(C)C(=O)Nc1ccccc1OC)O2	i	/	/	0	12	-0.8	-11	/	/
O=C(Nc1cccc(S(=O)(=O)Nc2ccc(SC(F)F)cc2)c1)C1CCC1	i	-5%	-1.4	/	/	/	-2.2	0.67	-3
CCOc1ccc(Br)cc1/C=N/NC(=O)c1ccncc1	/	-1%	-1.6	/	/	/	/	/	7
N#Cc1c(NC(=O)C2CC2)sc2c1CCCCC2	/	-15%	-3.4	/	/	/	/	0.67	2
O=C(O)c1ccc(NC(=O)c2cc3ccccc3o2)cc1	i	-5%	-4.0	-7	0	-2.1	-7.2	0.68	1
O=C(C[C@H]1C=C[C@@H](NC(=O)c2ccc3c(c2)OCO3)[C@@H](CO)O1)NCc1ccc(Oc2ccccc2)cc1	i	/	/	-8	-21	2.2	2.3	/	/
COC(=O)NNC(=O)c1ccc(C)c(Br)c1	i	12%	2.7	4	2	-4.1	-1.4	0.72	6
C[C@@H]1CN([C@@H](C)CO)C(=O)c2cc(C#C[C@@H](C)O)cnc2O[C@H]1CN(C)C(=O)c1ccccc1F	i	/	/	0	-2	0.8	-0.6	/	/
COc1ccc(NC(=O)C(=O)N/N=C/c2cccnc2)cc1	i	3%	3.1	1	1	-1.3	-16	/	0
OC1COC(c2ccccc2)OC1C1OC(c2ccccc2)OCC1O (stereo not drawn)	i	/	18	7	6	-0.2	-2.1	/	/
C[C@@H]1CN([C@H](C)CO)C(=O)c2cccc(NS(C)(=O)=O)c2O[C@H]1CN(C)CC1CCCCC1	i	/	/	5	-1	-1.8	1.5	/	/
Cn1nc(C(=O)OCC(=O)NCc2ccc(Cl)cc2)c2ccccc2c1=O	i	/	2.9	3	5	-3.7	2.5	0.65	-18
O=C(Cn1cnc2ccccc2c1=O)Nc1ccc(N2CCOCC2)cc1	i	9%	-0.5	-14	-19	0.6	-0.3	0.65	/
CCOC(=O)C1(CCOc2ccccc2)CCN(Cc2ccc(OC)c(O)c2)CC1	i	/	2.0	6	9	0.2	-3.4	0.71	/
CN1C(=O)c2cc(NC(=O)NC3CCCC3)ccc2OC[C@H]2O[C@@H](CC(=O)NC3CCC3)CC[C@H]21	i	/	/	1	3	-0.5	-1.8	/	/
CN(C)CC(=O)N1[C@H](C#N)[C@H](c2ccc(-c3ccccc3F)cc2)[C@H]1CO	i	/	/	3	0	-1.1	1.7	/	/
COC(=O)c1c(F)c(F)c(N2CCOCC2)c(F)c1F	/	-4%	-2.9	/	/	/	/	0.69	-2
CCCN1CCC(C(=O)NC(c2ccc(F)cc2)c2ncccc2C)CC1 (stereo not drawn)	i	/	-0.3	6	10	-3.0	2.3	/	/
CCOC(=O)N1CCN(C(=O)COc2cccc3c2CCN(Cc2ccccc2F)C3=O)CC1	i	2%	-0.7	/	/	/	-0.2	0.69	0
Cc1ccc(-c2ccc3c(c2)O[C@@H](CN(C)Cc2cncnc2)[C@H](C)CN([C@H](C)CO)S3(=O)=O)cc1	i	/	/	-16	-41	24	9.3	/	/
Cc1ccc(NC(=O)CSCC(=O)Nc2cc(Cl)ccc2N2CCN(C)CC2)cc1	i	-2%	3.8	-1	-8	0.3	15	0.68	-2
O=C(O)CC1S/C(=N/N=C/c2ccc(-c3ccc(Cl)c([N+](=O)[O-])c3)o2)NC1=O (stereo not drawn)	i	11%	-5.4	15	8	5.8	-1.8	/	?
C[C@H](CO)N1C[C@H](C)[C@H](CN(C)C(=O)CN(C)C)Oc2cc(-c3ccncc3)ccc2S1(=O)=O	i	/	/	5	5	-1.4	-1.8	/	/
Cc1ccc(N(CC(=O)N2CCN(Cc3ccccc3)CC2)S(C)(=O)=O)cc1C	i	6%	-1.9	-3	-6	-1.8	7.4	0.66	-20
O=C(COC(=O)c1cccs1)Nc1ccccc1[N+](=O)[O-]	i	0%	-2.3	4	4	0.9	2.6	0.65	27
CCC(=O)c1cc(F)ccc1OCC(=O)Nc1ccc2c(c1)OCCO2	i	-2%	-3.9	-1	-8	0.1	2.1	0.7	-1
Cc1ccc(S(=O)(=O)N(C)C[C@H]2OCCCC[C@@H](C)Oc3ccc(NC(=O)Nc4ccc5c(c4)OCO5)cc3C(=O)N([C@@H](C)CO)C[C@@H]2C)cc1	i	/	/	-6	-10	-2.8	2.7	/	/
Cc1ccc(S(=O)(=O)NC(C(=O)OCC(=O)NC(=O)c2cccn2C)C(C)C)cc1 (stereo not drawn)	/	24%	3.2	/	/	/	/	0.67	-3
CCOC(=O)N1CCC(NC(=O)C(C)n2c3ccccc3c3cnn(C)c(=O)c32)CC1 (stereo not drawn)	/	10%	0.1	/	/	/	/	0.74	-2
O=C(C[C@H]1C[C@@H]2c3cc(NC(=O)c4cccnc4)ccc3O[C@@H]2[C@@H](CO)O1)NCc1cc(F)ccc1F	i	/	/	-3	1	0.1	2.1	/	/
CN(C)c1ccc(/C=C/C(=O)c2c(O)c3ccccc3oc2=O)cc1	i	16%	21	20	4	41	1.8	0.67	25
CN(C)CCNc1c2c(c(C#N)c3nc4ccccc4n13)CCCC2	/	-3%&-1%	1.2	/	/	/	/	/	17
CC1=CC2=NC(=O)/C(=C\c3ccc(-c4cccc(Cl)c4)o3)C(=N)N2O1	i	/	14	6	-10	-2.7	2.6	0.72	-4

Part of the list above, comma-delimited.
Compound,FGF22 binding,Vif A3G,HNF4A DNA FP,rRNA inh HTS,rRNA inh HTS OD600,rRNA inh HTS RFP,MLL AF4-AF9 inh,Ecoli growth,ALR H2O2 inh
CCOC(=O)C1(CCOc2ccccc2)CCN(Cc2ccc(OC)c(O)c2)CC1,i,/,2.0,6,9,0.2,-3.4,0.71,/
CN1C(=O)c2cc(NC(=O)NC3CCCC3)ccc2OC[C@H]2O[C@@H](CC(=O)NC3CCC3)CC[C@H]21,i,/,/,1,3,-0.5,-1.8,/,/
CN(C)CC(=O)N1[C@H](C#N)[C@H](c2ccc(-c3ccccc3F)cc2)[C@H]1CO,i,/,/,3,0,-1.1,1.7,/,/
COC(=O)c1c(F)c(F)c(N2CCOCC2)c(F)c1F,/,-4%,-2.9,/,/,/,/,0.69,-2
CCCN1CCC(C(=O)NC(c2ccc(F)cc2)c2ncccc2C)CC1 (stereo not drawn),i,/,-0.3,6,10,-3.0,2.3,/,/
CCOC(=O)N1CCN(C(=O)COc2cccc3c2CCN(Cc2ccccc2F)C3=O)CC1,i,2%,-0.7,/,/,/,-0.2,0.69,0
Cc1ccc(-c2ccc3c(c2)O[C@@H](CN(C)Cc2cncnc2)[C@H](C)CN([C@H](C)CO)S3(=O)=O)cc1,i,/,/,-16,-41,24,9.3,/,/
Cc1ccc(NC(=O)CSCC(=O)Nc2cc(Cl)ccc2N2CCN(C)CC2)cc1,i,-2%,3.8,-1,-8,0.3,15,0.68,-2
O=C(O)CC1S/C(=N/N=C/c2ccc(-c3ccc(Cl)c([N+](=O)[O-])c3)o2)NC1=O (stereo not drawn),i,11%,-5.4,15,8,5.8,-1.8,/,?
C[C@H](CO)N1C[C@H](C)[C@H](CN(C)C(=O)CN(C)C)Oc2cc(-c3ccncc3)ccc2S1(=O)=O,i,/,/,5,5,-1.4,-1.8,/,/
Cc1ccc(N(CC(=O)N2CCN(Cc3ccccc3)CC2)S(C)(=O)=O)cc1C,i,6%,-1.9,-3,-6,-1.8,7.4,0.66,-20
O=C(COC(=O)c1cccs1)Nc1ccccc1[N+](=O)[O-],i,0%,-2.3,4,4,0.9,2.6,0.65,27

The listing continues.
SMILES	FGF22 binding	Vif A3G	HNF4A DNA FP	rRNA inh HTS	rRNA inh HTS OD600	rRNA inh HTS RFP	MLL AF4-AF9 inh	Ecoli growth	ALR H2O2 inh
C=C(C)CN(CC)c1ccc(N2C(=O)CCCC2=O)cc1[N+](=O)[O-]	i	-8%	0.6	2	1	1.3	0.4	0.71	-7
O=C(Nc1ccc(S(=O)(=O)Nc2ncccn2)cc1)c1ccc(F)c(S(=O)(=O)N2CCOCC2)c1	i	2%	5.5	12	3	-1.8	0.2	0.7	-5
CC(=O)c1ccc(NC(=O)c2cc(-c3cccs3)on2)cc1	i	/	-4.4	14	17	4.2	-13	0.7	-18
O=CN1CCN(C(=O)Cc2ccc(Cl)cc2)CC1	i	-11%	0.3	/	/	/	1.0	/	/
COc1ccccc1-n1nnnc1SCc1ccccc1	/	4%	2.4	/	/	/	/	0.71	-10
COc1ccc(/C=C(\C#N)c2n[nH]c(Cn3cncn3)n2)cc1	i	/	0.9	2	-2	-2.4	-3.1	0.69	46
N=c1c(C(=O)NCc2ccc3c(c2)OCO3)cc2c(=O)n3ccccc3nc2n1CC1CCCO1 (stereo not drawn)	i	7%	10	4	4	-0.3	-4.4	0.62	0
O=C(Nc1nnc(COc2ccc(F)cc2)s1)Nc1ccccc1F	i	/	-6.5	11	13	0.7	-0.8	0.66	-1
CN1CCN(C(=O)C[C@@H]2CC[C@@H]3[C@H](COc4ccc(NC(=O)C5CCOCC5)cc4C(=O)N3C)O2)CC1	i	/	/	1	6	-1.4	2.1	/	/
O=C1C(=O)c2ccccc2C([O-])=C1[n+]1ccccc1	/	5%	1.7	-3	-4	-3.7	3.7	0.66	-12
COc1ccccc1S(=O)Cc1ccc(C(=O)O)o1 (stereo not drawn)	/	7%	1.1	/	/	/	/	0.76	-2
Cc1ccc(CN(C(=O)c2csnn2)C(C(=O)NC2CCCC2)c2ccccn2)cc1 (stereo not drawn)	i	/	0.8	1	-1	1.8	-0.3	0.67	-1
CC(=O)Nc1cccc2cc(O)ccc12	i	18%	11	-5	-1	-0.9	-9.9	0.67	/

Some of the compounds tested; the hit share may differ from the screen's.
